Vaccinia mCherry = vaccinia inhibition (mCherry reporter). Vaccinia virus mCherry reporter infection, fluorescence; about a quarter of the inactives have no number. Potency, µM (series often up to 36.5 µM), for the others: at the top dose activity change, negative = inhibition, most hits filed as inhibitors. 310,000 compounds, 0.63% hits. AID 720579; active = well fitted inhibition curve with a large enough effect; inconclusive = small, poorly fitted or top-dose-only effect; inactive = no such curve, though single readings can be large or run the other way; tested in A549 cells; further: nearly all actives have a fitted effect of over 35% in size; inactives centre near -10
Vaccinia Venus = vaccinia inhibition (Venus reporter). Vaccinia virus Venus reporter expression, fluorescence. Potency, µM (titrated, usually from 36.5 µM), inactives show at the top dose activity change, negative = inhibition, most hits filed as inhibitors. 330,000 compounds, 0.46% hits; active means well fitted inhibition curve with a large enough effect; inconclusive means small, poorly fitted or top-dose-only effect; inactive means no such curve, though single readings can be large or run the other way; tested in A549 cells; further: nearly all actives have a fitted effect of over 30% in size; inactives centre near -10
Starred values were filed as active, the others as inactive; i = inactive; ? = inconclusive; · = not tested or not shown; [ ] = remark or other dose. On the % scale 0 is the no-effect control and ±100 the full control effect; potency means the concentration at half of the fitted maximal effect.

Order of values: Vaccinia mCherry	Vaccinia Venus
> COc1ccc(-c2coc3c(C(=O)NCC4CCOCC4)cccc23)c(C)c1
→ i	?
> CCOC(=O)N1CCN(C(=O)Cn2nc(-c3ccc(Cl)cc3)ccc2=O)CC1
→ i	-14%
> O=C(CC1SC(N2CCCC2)=NC1=O)Nc1ccc(C(=O)Nc2ncccc2O)cc1 (stereo not given)
→ -12%	-27%
> O=C(NN=C1CCCCC1)Nc1ccccc1Cl
→ i	-6%
> CCCCNC(=O)c1cc2c(=O)n3cccc(C)c3nc2n(CCN2CCOCC2)c1=N
→ -11%	4%
> CC(=O)N(Cc1cccs1)Cc1cc2cc(C)c(C)cc2nc1Cl
→ -4%	-6%
> CCOC(=O)c1cnc2ccc(OCC)cc2c1N1CCN(c2ccccc2F)CC1
→ -13%	0%
> O=C(CSc1nccn1Cc1ccccc1)NCc1ccco1
→ -3%	-11%
> Cc1nc(NS(=O)(=O)c2ccccc2)sc1NC(=O)OCCN(C)C
→ -9%	4%
> Cc1nn(Cc2ccc(C(=O)N/N=C/c3ccncc3)o2)c(C)c1Cl
→ -10%	-9%
> COc1ccc2c(CCNC(=O)Nc3ccccc3)c[nH]c2c1
→ -8%	-17%
> Nc1sc(-c2ccccc2)cc1C(=O)N/N=C/c1ccc(Cl)cc1
→ -24%	-21%
> Cc1ccc(C)c(NC(=O)N2CCN(C(=O)c3nsc4ccccc34)CC2)c1
→ -19%	-18%
> COc1cc(OC)c(NC(=O)Cn2ncn3c(cc4cc(C)ccc43)c2=O)cc1Cl
→ -17%	-10%
> CC(=O)c1c(N2CCOCC2)nc(=S)n(-c2ccc([N+](=O)[O-])cc2)c1C
→ -14%	6%
> O=C(CSc1ccc(Br)cc1)Nc1cccc(S(=O)(=O)N2CCOCC2)c1
→ -3%	-11%
> Cc1ccc(CSCC(=O)N(C)CC(=O)Nc2ccc(Br)cc2C)cc1
→ -24%	-4%
> C[C@@H]1CCCCO[C@@H](CN(C)S(=O)(=O)c2ccc(Cl)cc2)[C@@H](C)CN([C@H](C)CO)C(=O)c2cc(N(C)C)ccc2O1
→ i	-4%
> CC(C)=CCN1CCN(Cc2cc(C(C)C)n[nH]2)CC1CCO (stereo not given)
→ i	-9%
> COCCNc1nc(Oc2ccc(NC(C)=O)cc2)c2sc(-c3ccccc3)cc2n1
→ -14%	?
> COc1ccc(C(C)=O)c(OCC(=O)NCCC2=CCCCC2)c1
→ -13%	-21%
> N#Cc1c(-c2ccccc2)nc(-c2ccccc2)[nH]c1=O
→ -8%	-8%
> CC1(C)CC(N2CCOCC2)=CC(=[N+]2CCOCC2)C1
→ 0%	3%
> COc1cccc(C2N(c3cccc(Cl)c3)C(=O)C3CCCN32)c1OC (stereo not given)
→ -18%	-16%
> CCOC(=O)c1c(NC(=O)CCCOc2ccc(Cl)cc2)sc2c1CCC2
→ -8%	-1%
> COc1cc(C2C(=O)N(C3CCCCC3)CC(=O)N2C2CCCCC2)ccc1OC(C)C (stereo not given)
→ -9%	0%
> COc1ccc2[nH]c(=O)c(C(c3nnnn3CC3CCCO3)N3CCCCC3)cc2c1 (stereo not given)
→ 4%	1%
> NCCc1nnc(SCc2ccccc2Cl)o1
→ i	-1%
> COc1cccc(C(=O)Nc2ccc3nc(SCC(=O)N4CCc5ccccc54)sc3c2)c1
→ -3%	4%
> CCN1CCN(c2nc3c(c(=O)n(C)c(=O)n3C)n2Cc2cccc3ccccc23)CC1
→ -7%	-23%
> O=C(c1ccc(S(=O)(=O)Nc2ccccc2F)cc1)N1CCC1
→ 0%	-16%
> N#Cc1ccc(C2=CC(=O)C[C@H](c3ccc(Cl)cc3)C2)cc1
→ -17%	?
> CCCN1CNc2c(c(=O)[nH]c(=S)n2CCc2ccc(C)cc2C)C1
→ i	-12%
> COCCN(C(=O)COC(=O)CCC(=O)c1cccs1)c1c(N)n(Cc2ccccc2)c(=O)[nH]c1=O
→ -9%	-8%
> O=C(CCS(=O)(=O)c1ccccc1Cl)Nc1ccc(S(=O)(=O)Nc2ncccn2)cc1
→ -9%	1%
> COc1ccc2oc(=O)c(C(=O)NCc3ccco3)cc2c1
→ -21%	2%
> COc1cc(OC)c(C(=O)O/N=C(\N)c2ccc(C)cc2)cc1OC
→ i	-22%
> COc1ccccc1NC(=O)Nc1nc(C(C)(C)C)cs1
→ i	-22%
> COc1ccc(CCC(=O)NCCc2csc(-c3ccc(F)cc3)n2)cc1
→ -11%[7.34 µM]	-5%[7.34 µM]
> CCC(=O)N(Cc1cc2cc(C)c(C)cc2[nH]c1=O)C1CCCCC1
→ ·	-9%
> CCCc1nn2c(=O)cc(COC(=O)c3ccc(NC(=O)c4cccs4)cc3)nc2s1
→ -1%	-18%
> Cc1cc(C)n(C(=O)C2CCCN2S(=O)(=O)c2ccc(Cl)cc2)n1 (stereo not given)
→ -2%	-1%
> O=C(CSCc1ccccc1)N1CCN(c2ccccc2)CC1
→ -18%	-2%
> Cc1cc(Cl)ccc1C(=O)C1CCCN(C2CCSCC2)C1 (stereo not given)
→ ?	-17%
> COc1ccc(NC(=O)C(OC(=O)c2cnccn2)c2ccccc2)cc1Cl (stereo not given)
→ i	-2%
> O=c1[nH]c2cc(Cl)ccc2n(CCNc2ncc(C(F)(F)F)cc2Cl)c1=O
→ -19%	-15%
> CCCc1c(-c2ccc(Cl)cc2)ncn1CCc1ccccc1OC
→ -22%	-22%
> NC(=O)C1CCN(C(=O)/C=C/c2ccccc2[N+](=O)[O-])CC1
→ -13%	-6%
> CCOC(=O)C1=C(C)NC(=S)NC1c1ccc(C)s1 (stereo not given)
→ i	0%
> O=C(CN1C(=O)NC2(CCCCCCC2)C1=O)N1CCN(C(=O)c2ccco2)CC1
→ ·	?
> CCc1ccc(CNC(=O)Cn2nc(C)n3c(cc4cc(C)ccc43)c2=O)cc1
→ 14%	3%
> CCCS(=O)(=O)N1CCC(C(=O)NCCCOC)CC1
→ ·	-2%
> Cc1ccc(C(=O)NNC(=O)Cn2nnc3ccccc32)cc1
→ -3%	-6%
> Cc1nnc(SCC2=C(C(=O)O)N3C(=O)C(NC(=O)Cn4nc(C(F)F)c(Cl)c4C)C3SC2)s1 (stereo not given)
→ 0%	-4%
> Cc1cc2nc(CCN(Cc3cccnc3)C(=S)Nc3ccc(F)cc3)[nH]c2cc1C
→ -7%	-13%
> CC(NC(=O)c1ccccc1Br)c1nnc(SCC(=O)NC2=NCCS2)n1C (stereo not given)
→ i	-9%
> Cc1csc(SCC(=O)Nc2nccs2)n1
→ -16%	-6%
> CC(C)(C)OC(=O)N1CCC[C@H]1c1nnc(SCC(=O)Nc2cccc(Cl)c2)o1
→ -10%	-7%
> O=C(OCc1nnc(-c2ccccc2)o1)c1ccc2c(c1)C(=O)N(CCc1ccccc1)C2=O
→ -15%	-2%
> CCOC(=O)c1sc(C)nc1C1CCN(C(=O)OCC)CC1
→ -11%	-5%

(list continues)
Structure | Vaccinia mCherry | Vaccinia Venus
Cc1ccc(S(=O)(=O)Nc2ccc(S(=O)(=O)N3CCOCC3)cc2)cc1[N+](=O)[O-] | 6% | -4%
COc1ccc(CNC(=O)C2Cc3c(-c4ccccc4Oc4ccccc4)ccnc3O2)cc1OC (stereo not given) | i | -2%
CC[n+]1c(C=C2C=C(C)OC(C)=C2)sc2ccccc21 | -29% | 79%[activator]
O=C1COc2ccc(C(=O)COC(=O)c3ccc(F)cc3Cl)cc2N1 | -1% | -14%
COc1ccc(-c2cc(C)no2)cc1S(=O)(=O)Nc1c(C)cc(C)cc1C | -10% | -23%
CC12CN3CC(C)(CN(C1)P3(=O)Oc1ccccc1)C2=O (stereo not given) | -16% | -10%
COC(=O)C1=C(c2ccc(C(C)=O)cc2)C[C@@H]2CC[C@H]1N2C(=O)NC1CC1 | i | -10%
Cc1cc(C)n(-c2ccc(C(=O)N3CCN(S(=O)(=O)c4ccc(Br)cc4Cl)CC3)cc2)n1 | -29% | ?
O=c1c([N+](=O)[O-])cn(Cc2ccccc2)c(=O)n1Cc1ccccc1 | i | -9%
Cc1csc(=O)n1CCC(=O)OCC(=O)NNC(=O)c1ccc(Br)cc1 | -8% | -14%
CC(=O)c1nnn(-c2ccc(F)cc2F)c1C | -14% | -4%
CCc1ccc(Cn2nnc(C(=O)Nc3ccc(OC)cc3OC)c2N)cc1 | -8% | -17%
Cc1c(NC(=O)CSc2nnc(-c3ccco3)n2-c2ccccc2)c(=O)n(-c2ccccc2)n1C | · | -2%
O=C(NCC(=O)N(c1ccccc1)C(C(=O)NCC1CCCO1)c1ccccc1)c1cccs1 (stereo not given) | 21% | -2%
CC(=O)NC(C)C12CC3CC(CC(C(=O)O)(C3)C1)C2 (stereo not given) | -5% | -13%
Clc1ccc(Cn2cc(/C=N/n3cnnc3)c3ccccc32)c(Cl)c1 | · | -21%
CCN1CCCC1CN(Cc1cc2ccc(C)cc2[nH]c1=O)C(=S)Nc1ccc(OC)cc1OC (stereo not given) | -27% | -27%
C/C(=N\OCC(=O)OCC(=O)NC(=O)c1ccccc1)c1ccc2c(c1)OCO2 | -22% | -4%
Cc1ccc(NC(=O)CCN2CCN(CCO)CC2)cc1 | -1% | -11%
COc1cc(C(=O)OCCc2c(C)nc3nc[nH]n3c2=O)cc(OC)c1OC | i | 2%
CCc1[nH]nc2c1C(Cc1ccccc1)C(C#N)=C(N)O2 (stereo not given) | -17% | -2%
Cc1ccccc1C(=O)NCCc1sc(-c2ccc(Cl)cc2)nc1C | 4% | 1%
Cc1ccc([C@H]2C[C@@H](O)[C@H](n3cc(-c4ccc(F)cc4)nn3)CN2C(=O)C2CCCCC2)cc1 | i | -23%
O=c1c2sccc2nc(SCc2cc(=O)n3cc(Cl)ccc3n2)n1Cc1ccccn1 | -4% | 3%
O=C(C[n+]1ccccc1Br)c1ccc(Cl)cc1 | -2% | -21%
CC(=O)c1ccc(Sc2ccc(C(C)=O)cc2)cc1 | -4% | -10%
Cc1nn(CC(=O)N2CCOCC2)c(C)c1[N+](=O)[O-] | · | 2%
Fc1ccc(C(c2nnc(-c3ccccc3)o2)N2CCN(c3cccc(Cl)c3)CC2)cc1 (stereo not given) | i | 5%
COc1ccc(CCNS(=O)(=O)c2ccc(N3CCCCS3(=O)=O)cc2)cc1OC | -9% | -14%
Cc1cccc(NC(=O)c2nc[nH]c2C(=O)N2CCN(C(=O)OC(C)(C)C)CC2)c1 | -4% | -23%

Filtered by structure: those above with a thiophene ring, fused or not
Structure | Vaccinia mCherry | Vaccinia Venus
CC(=O)N(Cc1cccs1)Cc1cc2cc(C)c(C)cc2nc1Cl | -4% | -6%
Nc1sc(-c2ccccc2)cc1C(=O)N/N=C/c1ccc(Cl)cc1 | -24% | -21%
COCCNc1nc(Oc2ccc(NC(C)=O)cc2)c2sc(-c3ccccc3)cc2n1 | -14% | ?
CCOC(=O)c1c(NC(=O)CCCOc2ccc(Cl)cc2)sc2c1CCC2 | -8% | -1%
COCCN(C(=O)COC(=O)CCC(=O)c1cccs1)c1c(N)n(Cc2ccccc2)c(=O)[nH]c1=O | -9% | -8%
CCCc1nn2c(=O)cc(COC(=O)c3ccc(NC(=O)c4cccs4)cc3)nc2s1 | -1% | -18%
CCOC(=O)C1=C(C)NC(=S)NC1c1ccc(C)s1 (stereo not given) | i | 0%
O=C(NCC(=O)N(c1ccccc1)C(C(=O)NCC1CCCO1)c1ccccc1)c1cccs1 (stereo not given) | 21% | -2%
O=c1c2sccc2nc(SCc2cc(=O)n3cc(Cl)ccc3n2)n1Cc1ccccn1 | -4% | 3%

Next part:
Structure | Vaccinia mCherry | Vaccinia Venus
CCN1C(=O)[C@H]2[C@H]3CN=C(SCc4ccc(C#N)cc4)N3[C@@](CC)(C(=O)OC)[C@H]2C1=O | -11% | -7%
COc1ccc(COC(=O)C2=C(C)NC(=O)NC2c2ccccc2OC(C)C)cc1 (stereo not given) | -14% | -3%
O=C(CN(Cc1ccccc1C(F)(F)F)C(=O)CNC(=O)c1ccco1)NC1CCCC1 | -16% | -4%
Cc1nn(Cc2ccccc2)c(C)c1NC(=O)CSc1nc(-c2ccccc2)nc2c1cnn2-c1ccccc1 | -12% | -1%
Cc1nc(Cc2ccccc2)sc1CC#N | i | 13%
COc1cccc(NC(=O)CN(C)C(=O)CCN2C(=O)C3CC=CCC3C2=O)c1 (stereo not given) | i | -15%
CCc1cccc(C)c1NC(=O)Cn1cc2c(n1)CCCC2 | -8% | -13%
Cc1ccc(NC2CCCN(C(=O)CCCN3CCCCC3=O)C2)cc1C (stereo not given) | -18% | -12%
CCOc1ccc(CCNC(=O)C2CCCN(c3nnc(C)c4c(C)n(-c5ccccc5)nc34)C2)cc1 (stereo not given) | -18% | -14%
COc1cc(C(=O)OCC(=O)Nc2ccc(C)cc2)cc(OC)c1OC | i | -4%
Cc1c(CCO)c(=O)n(-c2ccccc2)n1S(=O)(=O)c1ccc([N+](=O)[O-])cc1 | 1% | -4%
COc1ccccc1N1CCN(c2nc3ccccc3nc2C(C#N)C(=O)OC(C)C)CC1 (stereo not given) | · | -28%
CCCNC(=O)c1onc(CSc2ccc(F)c(F)c2)c1C(=O)NCCC | -2% | -15%
CCc1nn(-c2cc(Oc3ccccc3)nc(-c3ccccc3)n2)c(N)c1C#N | i | -15%
CC(C)(C)OC(=O)N1CCC(NC(=O)c2[nH]cnc2C(=O)Nc2ccccc2F)CC1 | -4% | -27%
CCC1CN(C)CCC1(OC(C)=O)c1ccccc1 (stereo not given) | -8% | -2%
Cc1ccc2nc3sc(C(=O)N4CCOCC4)c(N)c3cc2c1 | ? | -12%
O=C(NC1CCCC1)c1ccc2c(c1)S(=O)(=O)c1ccccc1C2=O | ? | -9%
CC(Cl)C(=O)NC(=O)NC12CC3CC(CC(C3)C1)C2 (stereo not given) | -12% | -7%
O=C(Nc1nncs1)c1ccccc1Br | · | -4%
CN1OC[C@@H]2CN(C(=O)c3cccc4ccccc34)[C@H](c3ccccc3Br)C[C@@H]21 | 36%[activator] | -8%
